T cruzi repl – T. cruzi replication inhibition | T. cruzi beta-gal in NIH3T3, luminescence, 90 h | inhibition, % (no concentration beside the values) | 300,000 compounds, 1.4% hits | AID 1885;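 active = mean inhibition across valid replicates above about 55%, limit read from the data; inconclusive = mean below that limit but half or more replicates reach it; inactive = mean below it, under half of replicates reach it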;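 also: signal also drops with host cell toxicity which is not excluded here; 0% = plate median of DMSO wells and 100% = zero luminescence signal; higher percent means less beta-gal luminescence so fewer parasites; stock transfer was 50 nL into about 50 µL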
Beta cell apopt – beta cell apoptosis inhibition | INS-1E cytokine-induced death, ATP luminescence, 48 h; percent of positive-control rescue, neutral wells zero | protection from apoptosis, % (test concentration not listed) | 300,000 compounds, 0.8% hits | AID 435005;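 active = all replicates at 75% or more, or half of them and the mean; inconclusive = half reach 75% but not the mean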;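 also: 0% = cytokine-treated negative control wells and 100% = positive control rescue; higher means more ATP so stronger rescue from cytokine killing; wells of about 40 µL received 100 nL stock; the first replicate is given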
Beta2AR agonist – agonists of human beta-2 adrenergic receptor inducing internalization | P07550 | Am2.2-beta2AR cells, FAP receptor internalization, flow cytometry; reference of the scale not given here | response, % (test concentration not listed) | 340,000 compounds, 0.43% hits;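 active = response above a set limit, near 3 SD of response in nonfluorescent compounds, cut at about 42% in these data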;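 also: stock transfer was 100 nL into about 11 µL; a reference agonist was the positive control; negative values mostly stem from fluorescent compounds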
Ecoli rRNA inh – selective bacterial rRNA inhibition in E. coli | E. coli WT GFP vs humanized-ribosome RFP mutants, fluorescence, 24 h; active compounds read low; DMSO median 0, no signal -100 | GFP signal change (wild-type ribosome), % (test concentration not listed) | 350,000 compounds, 1.6% hits | AID 720706;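 active = significant combined selectivity score with lowered wild-type GFP, culture density cut under 30%, mutant RFP and density less affected; inactive = any of these conditions unmet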; also: one replicate is shown; some compounds called inactive have numbers as strong as hits
LANA-H2B inh – blocks KSHV LANA binding to histone H2A/H2B; 320,000 compounds, 0.6% hits; AID 2629; cell-free LANA-H2A/H2B peptide, fluorescence polarization; Q9QR71; inhibition, % (concentration not given with the values); in the data active = inhibition mostly above about 10%, no sharp cut-off; inactive = mostly below about 6.7%;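 also: stock transfer was 7.5 nL into about 10 µL; 0% = median of vehicle wells and 100% = median of positive control wells; one replicate is shown; the record names a cut of 25% in any replicate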
Target sequence (Q9QR71 whole entry, looked up): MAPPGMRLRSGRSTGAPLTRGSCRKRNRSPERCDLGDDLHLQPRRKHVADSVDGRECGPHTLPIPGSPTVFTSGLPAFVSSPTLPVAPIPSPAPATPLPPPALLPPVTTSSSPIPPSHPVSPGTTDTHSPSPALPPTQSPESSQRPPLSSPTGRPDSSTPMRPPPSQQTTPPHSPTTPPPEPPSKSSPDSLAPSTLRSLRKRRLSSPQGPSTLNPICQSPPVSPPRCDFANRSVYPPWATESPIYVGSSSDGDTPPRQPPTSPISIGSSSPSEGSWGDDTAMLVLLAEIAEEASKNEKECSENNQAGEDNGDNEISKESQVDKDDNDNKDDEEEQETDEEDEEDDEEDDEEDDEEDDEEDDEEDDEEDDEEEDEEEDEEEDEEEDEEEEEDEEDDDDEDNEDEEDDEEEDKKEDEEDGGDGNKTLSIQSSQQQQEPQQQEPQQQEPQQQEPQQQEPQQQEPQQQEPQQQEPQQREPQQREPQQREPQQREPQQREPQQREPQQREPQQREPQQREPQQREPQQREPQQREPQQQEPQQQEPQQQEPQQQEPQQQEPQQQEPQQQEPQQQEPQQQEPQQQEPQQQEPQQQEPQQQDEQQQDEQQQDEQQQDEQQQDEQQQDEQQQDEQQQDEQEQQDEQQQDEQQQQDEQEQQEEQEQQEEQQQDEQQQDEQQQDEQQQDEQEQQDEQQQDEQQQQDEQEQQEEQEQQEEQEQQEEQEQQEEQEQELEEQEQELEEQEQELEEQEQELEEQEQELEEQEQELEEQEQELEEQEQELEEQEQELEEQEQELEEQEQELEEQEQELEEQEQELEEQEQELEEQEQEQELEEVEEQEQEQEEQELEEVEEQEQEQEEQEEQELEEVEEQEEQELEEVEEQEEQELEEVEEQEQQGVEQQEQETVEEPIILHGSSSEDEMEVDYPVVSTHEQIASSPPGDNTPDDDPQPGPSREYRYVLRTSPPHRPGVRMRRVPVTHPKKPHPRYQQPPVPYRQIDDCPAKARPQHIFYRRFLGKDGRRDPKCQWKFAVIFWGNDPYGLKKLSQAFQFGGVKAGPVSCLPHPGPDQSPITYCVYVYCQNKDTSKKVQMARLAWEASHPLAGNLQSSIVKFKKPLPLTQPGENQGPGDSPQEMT
Calb FLC – C. albicans growth modulation with fluconazole; C. albicans CaCi-2 (fluconazole-resistant clinical isolate) + fluconazole, Alamar Blue growth, 48 h; growth inhibition, % (concentration not given with the values); 300,000 compounds, 0.57% hits; AID 1979;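 active = most replicates above 75%; inconclusive = exactly half above 75%; inactive = most below 75%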;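 also: all wells also contain fluconazole at 8 µg/ml as a sub-toxic cotreatment; 0% = median of DMSO wells and 100% = median of geldanamycin control wells; wells of about 8 µL received 7.5 nL stock; the first replicate is given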
ALR H2O2 inh – blocks human ALR sulfhydryl oxidase activity. inhibition, % (no concentration beside the values). P55789. 290,000 compounds, 3.8% hits. AID 485317. purified ALR, DTT oxidation, H2O2 HRP-luminol luminescence;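 active = mean and each replicate at 75% or more; inconclusive = only one of the two met; inactive = neither met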;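 also: stock transfer was 7.5 nL into about 7.5 µL; 0% = neutral wells and 100% = wells with inactivated enzyme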
Bfl-1 A1 inh – inhibitors of the anti-apoptotic protein A1, read as caspase activation. caspase activation, % (no concentration beside the values). 330,000 compounds, 0.066% hits. MEF A1-2A-BIM cells, Caspase-Glo 3/7 luminescence, 3 h; percent of clofoctol response, vehicle zero;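 active = over half of replicate activation scores above 10%, or exactly half above 10 with the replicate mean above 10; inconclusive = replicate mean below 10 yet half the replicates above 10; inactive = over half of replicates below 10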;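 also: wells of about 30 µL received 50 nL stock; many hits fall short of the cut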
Ecoli rRNA inh OD600 – recorded beside Ecoli rRNA inh, whose call it bears; OD600 change, %; measured here: OD600 growth;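 optical density of the mix in the first replicate; 0 = DMSO median and -100 = no signal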
Ecoli rRNA inh RFP – recorded beside Ecoli rRNA inh, whose call it bears; RFP signal change, %; measured here: RFP humanized mutant strains;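 first replicate; 0 = DMSO median and -100 = no signal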
Numbers without * were called inactive; ? = inconclusive; · = no result given. An excerpt; rates above refer to the full screens.

SMILES	T cruzi repl	Beta cell apopt	Beta2AR agonist	Ecoli rRNA inh	Ecoli rRNA inh OD600	Ecoli rRNA inh RFP	LANA-H2B inh	Calb FLC	ALR H2O2 inh	Bfl-1 A1 inh
N#Cc1nnn(-c2cc(Cl)cc(Cl)c2)c1N	17.8	3.2	0.7	9.5	7.9	-0.9	-4.2	-3.6	-6.9	0.1
Cc1[nH]n(-c2ccc(Cl)cc2)c(=O)c1/C=N/n1c(C)nc2ccccc2c1=O	-11.3	15.0	7.4	·	·	·	3.3	-5.8	0.7	-5.5
Cc1cccc(C)c1NC(=O)c1c(O)c2ccccc2[nH]c1=O	5.3	0.5	-1.1	2.8	3.9	0.8	-3.1	-12.9	-10.0	-0.1
COC(=O)c1c(C)cc(OC(C)=O)c(C)c1OC(C)=O	-9.5	-0.8	0.0	·	·	·	-0.9	2.2	9.4	0.7
COc1ccc(NC(=S)NNC(=O)c2ccco2)c(OC)c1	-5.0	1.2	-4.9	4.8	-2.0	-1.1	0.3	6.7	77.1*	0.2
Cc1ccc(OCC(=O)N(Cc2ccccc2)c2c(N)n(Cc3ccccc3)c(=O)[nH]c2=O)c(C)c1	-0.5	-2.1	-3.9	14.2	15.2	0.4	-2.1	·	1.0	0.5
CC(C)C(=O)NC(=S)Nc1ccc(S(=O)(=O)N(C)Cc2ccccc2)cc1	·	4.0	4.2	·	·	·	-0.6	-7.5	1.9	0.6
CCN1CCN(S(=O)(=O)c2ccc(Cl)c(C(=O)N(C)Cc3cccs3)c2)CC1	·	-1.7	9.4	3.3	1.1	1.8	3.2	·	-3.6	-0.5
CCc1nc(N2CCCC(C)C2)c2oc3ccccc3c2n1 (configuration not stated)	4.1	3.2	-7.7	·	·	·	-2.9	-6.3	8.3	-1.6
O=C(Nc1n[nH]c(=S)s1)c1ccco1	-2.1	-9.7	-6.3	5.8	10.2	0.4	-6.5	1.6	·	-1.6
Cc1ccccc1NS(=O)(=O)c1cc(C(=O)Nc2cccc([N+](=O)[O-])c2)ccc1C	30.7	-1.5	2.3	·	·	·	0.6	-2.1	·	0.0
O=C(COC(=O)c1ccc(O)cc1)Nc1ccc2[nH]c(=O)[nH]c2c1	-6.0	-8.6	-3.7	4.1	10.8	-1.6	-4.0	9.4	-2.4	0.7
Nn1c(SCC(=O)Nc2ccc(F)cc2)nnc1C1CCCCC1	-13.7	-2.7	-9.0	·	·	·	3.2	3.7	0.1	0.9
O=C(NCc1ccco1)c1ccc(Br)s1	-27.7	-2.9	-2.3	·	·	·	1.3	1.5	-0.2	-0.8
N#CCC(=O)Nc1sc2c(c1C(N)=O)CCCC2	-1.0	·	0.8	-19.9	-10.3	11.2	-3.6	-5.4	89.7*	0.6
Cc1ccc(Nc2nc(OC(C(F)(F)F)C(F)(F)F)nc(N3CCOCC3)n2)cc1	41.2	10.7	-2.6	·	·	·	-0.8	5.2	-0.8	0.0
Cc1cccc(NC(=S)NCCN2CCOCC2)c1C	1.5	-3.9	-3.0	·	·	·	0.0	-10.0	-2.3	-0.4
COc1ccccc1CNC(=O)c1ccc(OCc2c(C)noc2C)c(OC)c1	-6.1	5.5	1.0	·	·	·	2.6	-1.5	-3.4	0.1
O=C(NCc1cccc(Cl)c1)c1ccc2c(c1)OCO2	-9.1	1.3	-2.8	·	·	·	1.3	-20.7	2.3	-0.4
COc1cccc(CNC(=O)C2CCC(CNc3c(N4CCC(C)CC4)c(=O)c3=O)CC2)c1 (configuration not stated)	-5.3	1.5	0.5	7.5	5.5	-5.8	2.6	-3.2	·	0.3
O=C(N/N=C(\Cc1ncc[nH]1)c1ccccc1)c1ccccc1	73.5*	46.0	·	-20.7	-41.2	3.2	1.1	?	-1.3	0.2
CC(=O)NS(=O)(=O)c1ccc(NC(=O)c2ccccc2F)cc1	-8.0	0.1	0.5	6.7	5.4	-1.7	0.9	-5.5	27.9	0.1
CC(C)(C)C1CCC2(CC1)SCC(=O)N2c1ccccc1 (configuration not stated)	-1.7	-2.9	13.6	3.9	2.7	1.7	6.7	-1.0	-6.0	0.1
Cc1ccc(S(=O)(=O)N2CCOCC2)cc1NC(=O)COC(=O)COc1ccccc1[N+](=O)[O-]	·	6.5	6.1	3.5	17.6	0.7	0.5	·	-12.2	0.6
COc1ccc(C(=O)Nc2ccccc2C(=O)Nc2ccc(C(=O)O)cc2)cc1	3.2	·	-2.5	-13.9	-19.1	-12.7	-3.6	15.5	28.1	-2.1
O=Nc1c2cc(-c3ccccc3)[nH]nc-2c2ccccc12	-3.5	·	-9.0	6.7	17.6	2.3	·	30.5	·	·
O=C(CC1SC(=Nc2ccc(OC(F)F)cc2)N(CCN2CCOCC2)C1=O)Nc1ccccc1 (configuration not stated)	-0.7	-16.0	1.0	-11.4	-6.8	15.5	-1.6	8.7	·	0.3
CN(/N=C/c1cccnc1)c1cnn(-c2ccc(F)c(Cl)c2)c(=O)c1Cl	-1.3	·	-7.1	·	·	·	-1.2	?	-10.1	-0.4
COC(=O)c1ccc(/C=N/Nc2nc3ccccc3[nH]2)cc1	35.5	·	0.8	22.2	33.0	6.6	0.6	-18.8	51.0	0.5
CSc1ccc(CN2CCC(n3nccc3NC(=O)C3CCOC3)CC2)cc1 (configuration not stated)	9.7	-1.3	-3.9	2.0	7.9	0.1	3.7	0.6	-7.0	-0.7
O=C(/C=C/c1ccc(F)cc1)NC(=S)NNC(=O)c1cnccn1	?	70.2*	11.1	-48.6	-82.1	-14.8	-2.2	-2.9	·	-0.3
CCOC(=O)c1c(S(=O)(=O)NCC(=O)Nc2ccc(F)cc2)c(C)n(C)c1C	-8.0	-3.2	-3.0	1.0	-1.6	-0.4	2.2	10.3	-3.2	1.8
O=C1/C(=C/c2ccccn2)COc2ccccc21	-8.8	0.1	23.7	-5.6	25.1	6.8	-6.1	3.1	8.9	-0.1
COCCNS(=O)(=O)c1ccc2c(c1)n(C)c(=O)n2C	5.4	-14.8	-0.6	13.9	-0.6	3.8	-1.6	-6.2	-4.3	0.0
COc1ccc(C(=O)c2ccccc2)c2c(O)ccc(C(=O)c3ccccc3)c12	-0.5	64.2	12.2	·	·	·	-2.1	-9.2	-18.7	0.6
Cc1ccccc1C1=N/C(=C/c2cccs2)C(=O)O1	-8.1	-0.5	3.7	17.4	14.4	-0.8	-5.5	15.4	1.6	1.7
Cc1onc(-c2c(Cl)cccc2Cl)c1C(=O)O/N=C(\C#N)c1ccccc1	-6.4	·	6.5	-5.6	-0.6	-1.6	0.3	14.4	9.9	-0.2
CCn1c(SCC(=O)Nc2ccc3c(c2)OCCO3)nnc1C1CC1	-7.9	-0.4	-1.4	1.1	3.2	0.5	2.5	-3.5	-1.0	-0.5
Fc1ccc(NCc2n[nH]c(=S)n2Cc2ccccc2)cc1	-3.1	1.7	1.4	-21.4	-14.0	0.2	9.1	0.5	11.8	-0.1
O=C(O)CCC(=O)Nc1cccc(-c2nnc(-c3ccccc3)o2)c1	-13.9	·	-10.0	4.7	15.1	2.8	-0.7	-16.0	4.1	0.3
CS(=O)(=O)N1N=C(c2ccccc2)CC1c1cccs1 (configuration not stated)	-9.7	4.0	6.7	4.6	3.7	0.1	0.4	2.2	1.7	-0.3
O=C(COC(=O)c1ccccc1Br)NC1CCCCCCC1	·	-3.9	-9.9	-54.1	-77.5	-15.0	1.9	·	-0.6	3.0
O=C(CCn1c(=O)c2ccccc2n(Cc2cccc([N+](=O)[O-])c2)c1=O)N1CCc2ccccc2C1	5.8	5.6	-0.6	·	·	·	-2.4	4.7	-4.1	0.0
CC12CCC(C(=O)Nc3nc4ccc(Br)cc4s3)(OC1=O)C2(C)C (configuration not stated)	15.8	-0.4	7.9	-22.0	-23.2	-3.5	2.6	?	-1.9	0.0
Cc1nn(-c2ccccc2)nc1CNC(=O)c1ncoc1-c1ccccc1	·	2.5	0.3	-4.5	-3.1	1.0	-8.0	40.0	-3.7	-0.3
c1nc(NCC2(N3CCOCC3)CCCCC2)c2ccsc2n1	3.1	·	-1.8	·	·	·	4.2	-2.3	-2.8	0.0
COc1ccc(OC)c(N=c2ssnc2Cl)c1	-7.0	1.2	3.8	·	·	·	-4.3	11.4	·	0.0
O=C(COc1ccccc1)Nc1cc(NC(=O)COc2ccccc2)cc(C(=O)O)c1	-5.9	-2.8	-4.8	-5.9	-10.2	-0.2	-3.6	-1.2	-7.6	-1.3
CCNC(=O)NS(=O)(=O)c1cnccc1Nc1cccc(Cl)c1	-8.2	·	-2.7	·	·	·	-1.4	-15.0	3.0	0.0
COc1ccc(C2CC(C)=C(C#N)S(=O)(=O)C2C#N)cc1 (configuration not stated)	4.9	-2.7	5.2	-10.2	-5.2	5.3	0.8	-0.5	34.2	0.7
CCOc1ccccc1/C=N/Nc1ccccc1[N+](=O)[O-]	19.6	4.3	4.4	·	·	·	8.4	?	0.1	-0.6
Cc1cc(O)c(C(C)C)cc1NS(=O)(=O)c1ccccc1	12.6	-2.4	8.2	·	·	·	2.5	?	-3.8	0.3
CN(CC(=O)NC(=O)NCc1ccco1)CC(=O)Nc1ccccc1Cl	4.0	2.7	·	·	·	·	11.0	9.3	·	-0.3
O=C(CSc1ccc(F)cc1)NNC(=O)c1ccccc1Br	-1.6	-4.9	-1.4	9.2	5.3	-1.6	3.0	1.3	-3.9	-0.5
CC(C)CC(NC(=O)C1CCCCC1)C(=O)NC(C)c1ccccc1 (configuration not stated)	-3.1	0.2	-4.0	3.5	9.5	4.1	0.1	14.7	-10.8	0.8
Cc1ccc(N(C(=O)c2ccco2)C(C(=O)NC2CCCC2)c2cccnc2)cc1C (configuration not stated)	5.8	1.8	14.2	6.7	-1.9	-1.6	-0.7	-7.5	0.5	?
COc1ccc(CNC(=O)COC(=O)C(CCSC)N2C(=O)c3ccccc3C2=O)cc1 (configuration not stated)	·	-1.6	-4.0	-3.9	-10.5	-1.8	2.4	·	-2.4	0.4
COC(=O)C1CSc2[nH]c(=O)sc2C1c1ccccc1 (configuration not stated)	-8.8	-2.0	-25.7	6.6	14.2	8.0	6.5	68.8	73.8	-4.7
CCS(=O)(=O)c1ccc2c(c1)NC(=O)C(CCCl)O2 (configuration not stated)	1.0	2.6	2.4	10.9	-1.5	0.0	6.2	42.5	-4.5	-0.4
O=C(/C=C/c1cc([N+](=O)[O-])ccc1OC(F)F)NCc1ccc(F)cc1	-5.0	-0.3	7.1	·	·	·	-3.3	5.1	·	-1.0
CN=C(c1ccco1)n1c(=S)nc(-c2ccco2)n(C)c1=S	-11.7	-5.6	-2.7	·	·	·	4.0	10.5	-11.2	-2.4

Screening results: PubChem, several laboratories
